Sfp PPTase inh: blocks B. subtilis Sfp PPTase activity. 3.5% of 310,000 active. Biochemical Sfp PPTase activity, qHTS. Potency, µM, inactives show max response, negative = inhibition, usual class: inhibitors. Q9F4F7; active = well fitted inhibition curve with a large enough effect; inconclusive = small, poorly fitted or top-dose-only effect, or another doubt; inactive = no such curve, though single readings can be large or run the other way;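 note: the enzyme is Sfp with the accession as filed and its product quenches rhodamine fluorescence; potency is the fitted concentration of half-maximal effect; 0% = enzyme reaction without inhibitor and -100% = no enzyme wells; top concentration of the series not given in the record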
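After 15 min at room temperature with compound, 15 nM Sfp received 5 uM rhodamine-CoA plus 12.5 uM BHQ-2-ybbR (50 mM Hepes pH 7.6, 10 mM MgCl2). Rate came from the fluorescence difference over 30 min, ex 525/em 598 nm.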
ClpP mod: qHTS Assay for Activators of ClpP; ATP-dependent Clp protease proteolytic subunit (Bacillus subtilis (strain 168)), P80244; purified B. subtilis ClpP, FRET peptide cleavage, 20 min; 1.9% of 340,000 active; Potency, µM (series often up to 57.5 µM), for the others: at the highest dose activity change, negative = active; active = well fitted falling curve with a large enough effect; inconclusive = small, poorly fitted or top-dose-only effect; inactive = no such curve, though single readings can be large or run the other way; note: potency is the fitted concentration of half-maximal effect; the source files actives as falling curves though it sought activators and does not explain the sign; nearly all actives have a fitted effect of over 65% in size; many hits overshoot -100%
Target sequence (P80244 whole entry, looked up): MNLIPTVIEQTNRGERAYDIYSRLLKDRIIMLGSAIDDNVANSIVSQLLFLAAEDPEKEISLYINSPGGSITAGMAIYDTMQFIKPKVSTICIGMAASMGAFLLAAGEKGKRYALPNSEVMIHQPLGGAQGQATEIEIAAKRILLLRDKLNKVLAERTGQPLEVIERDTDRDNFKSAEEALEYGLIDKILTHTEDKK
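ClpP 10 microg/mL final, pH 8 Tris/KCl buffer with BSA, glycerol, Tween-20; compound pinned in; FRET-FV substrate; RT 20 min; Ex320/Em430; ΔFRET vs ADEP 5.8 microM, DMSO, no enzyme.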
gsp agonist: agonists of gsp mutant (McCune-Albright syndrome); gsp mutant cells, cAMP HTRF, 30 min; control for the full effect not named in the record; Potency, µM (doses to about 76.9 µM), for inactives: at the top dose activation (cAMP increase), actives largely listed as activators; 0.13% of 340,000 active; AID 624287; active = well fitted activation curve with a large enough effect; inconclusive = small, poorly fitted or top-dose-only effect, or another doubt; inactive = no such curve, though single readings can be large or run the other way; cell line not stated here;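 note: phosphodiesterase inhibitor Ro 20-1724 added with compounds to block cAMP breakdown; potency is the fitted concentration of half-maximal effect; nearly all actives have a fitted effect of over 60% in size; about a fifth of the inactives were tested at one dose only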
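Cells in DMEM/10% FBS with G418 were pretreated with compounds in DMSO plus […] (300 uM stock) for 30 min at 37C. cAMP was measured by HTRF (cAMP-d2 plus anti-cAMP antibody-K) after 30 min at room temperature.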
D2 ag: activates the human D2 dopamine receptor; P14416; DiscoveRx PathHunter D2 beta-arrestin, luminescence, 90 min; 100% = 57 uM dopamine signal; activation, % (no concentration beside the values); 0.084% of 360,000 active; in the data active = activation above about 40%; inconclusive = about 15% to 40%; inactive = below about 15%; note: compound concentration not given in the record; the text of the record calls up to 30% inactive
Target sequence (P14416 whole entry, looked up): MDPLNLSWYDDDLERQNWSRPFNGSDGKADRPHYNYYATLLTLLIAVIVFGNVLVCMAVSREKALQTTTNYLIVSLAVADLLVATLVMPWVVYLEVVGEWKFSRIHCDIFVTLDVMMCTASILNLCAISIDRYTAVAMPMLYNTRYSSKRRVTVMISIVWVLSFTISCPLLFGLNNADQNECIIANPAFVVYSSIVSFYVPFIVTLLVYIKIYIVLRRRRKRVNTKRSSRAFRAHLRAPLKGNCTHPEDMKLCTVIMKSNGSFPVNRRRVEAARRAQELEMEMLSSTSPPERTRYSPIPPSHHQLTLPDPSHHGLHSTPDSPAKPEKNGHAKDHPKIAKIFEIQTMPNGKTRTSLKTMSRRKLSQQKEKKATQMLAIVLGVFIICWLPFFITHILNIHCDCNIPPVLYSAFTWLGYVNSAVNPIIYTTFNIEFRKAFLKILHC
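DiscoveRx PathHunter D2 beta-arrestin cells (2,100/well) attached overnight, then compound-stimulated 90 min at 37 C in HBSS/10 mM HEPES/0.1% Tween-20 buffer; beta-galactosidase complementation read by luminescence after 1 h at ambient temperature. Dopamine 57 uM final (EC100) as control.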
PINK1 expr mod: changes PINK1 expression | PINK1 immunofluorescence, high-content cytometry, 24 h | Potency, µM (titrated, usually from 76.6 µM), without a hit: at the top dose activation (PINK1 increase), actives largely listed as activators | 0.2% of 410,000 active | AID 624263; active = well fitted activation curve with a large enough effect; inconclusive = small, poorly fitted or top-dose-only effect; inactive = flat fitted curve, though single readings scatter; cell line not stated here;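 note: potency is the fitted concentration of half-maximal effect; % of control where 0% means no effect; nearly all actives have a fitted effect of over 65% in size; a mitochondrial uncoupler was the plate control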
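PINK1 protein level read as immunofluorescence by microplate cytometer in a fixed, stained stable cell line after 24 h exposure to five compound concentrations, with CCCP as control.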
gsp antagonist: antagonizes gsp, the McCune-Albright syndrome mutation | gsp-mutant cells, cAMP HTRF, 30 min; control for the full effect not named in the record | Potency, µM (highest dose often 76.9 µM), for inactives: top-dose activity change, negative = inhibition, most hits filed as inhibitors | 0.4% of 340,000 active | AID 624288; active = falling curve of any shape with a large fitted effect; inconclusive = falling curve, mostly with a smaller effect; inactive = flat or rising curve; cell line not stated here;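 note: intracellular cAMP measured with PDE inhibitor Ro 20-1724 present during compound exposure; potency is the fitted concentration of half-maximal effect; % is set by controls: 0 for no effect and ±100 for the full control effect; nearly all actives have a fitted effect of over 65% in size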
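HTRF cAMP read-out (cAMP-d2 plus anti-cAMP antibody-K in lysis buffer, 30 min RT). Before lysis, cells are exposed to compounds with […] for 30 min at 37C in DPBS containing Ca/Mg, BSA and Tween 20.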
Menin-MLL FL inh: inhibitors of human menin-MLL interaction, wild-type MLL peptide; FP activity change, % at 61.4 µM; AID 1766; Fluorescence polarization, fluorescein-MLL peptide displacement from menin; 290,000 tested, under 10 active; inconclusive = falling polarisation curve, or a change in total fluorescence; inactive = total fluorescence flat and polarisation flat or rising; no compound was filed as active; the % refers to the polarisation; negative = inhibition;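 note: % of control where 0% means no effect; inhibitors lower the polarisation; unlabelled MLL peptide was the positive control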
The depositor's hits bear a star; ? = inconclusive; nt = not tested or not shown; & = joins results of further samples; [ ] = dose if it differs, or a comment.

SMILES	Sfp PPTase inh	ClpP mod	gsp agonist	D2 ag	PINK1 expr mod	gsp antagonist	Menin-MLL FL inh
Cc1cccc(NC(=O)C2CCCN2S(=O)(=O)c2ccc3c(c2)n(C)c(=O)c(=O)n3C)c1 (centres undefined)	-11%	-2.5%&-11%	36%	-5.7	2.0%&0.3%	-4%	0.5
CCCN1CCC(N2CCCC(C(=O)O)C2)CC1 (centres undefined)	12%	nt	-15%[15.4 µM]	-0.6	0.9%	nt	3.6
COc1ccc(CCNC(=O)CN2C(=O)NC3(CCCCC3)C2=O)cc1	nt	-4.5%	-5%[15.4 µM]	-4.5	-0.3%	5%	nt
CN(C)CCNC(=O)c1cc(Br)ccc1Cl	20%	4.0%	0%	-4.3	5.7%[38.3 µM]	17%	3.5
CCOc1ccc(N=C2NC(=O)S/C2=C\c2ccc(O)cc2)cc1	0%	0.3%	10%	-5.1	0.8%	4%	5.4
CCCCCC1CCC(C(=O)NNC(=S)NCC)CC1 (centres undefined)	25%	4.0%	1%	-2.0	2.1%[38.3 µM]	-4%	3.7
Cn1c(=O)[nH]c2c(cnn2C)c1=O	nt	1.0%	18%[15.4 µM]	-1.2	0.3%	11%	nt
CC1CN(C)C(C)CC1OC(=O)C(c1ccccc1)c1ccccc1 (centres undefined)	nt	0.8%	-4%	-5.0	3.3%	-6%	nt
O=C1CC(N2CCN(C3CCc4ccccc4C3)CC2)C(=O)N1c1ccccc1 (centres undefined)	nt	-2.9%	-14%	-3.4	-1.8%	1%	nt
CC(=O)Nc1cccc(-n2nnc(SCC(=O)Nc3ccccc3)n2)c1	-2%	-0.9%	26%	1.7	0.6%	5%	2.8
Cn1cc([N+](=O)[O-])c(C(=O)NC2CCCC2)n1	13%	-3.9%	24%	2.9	0.9%	1%	-2.7
CCN1CCN(C(=S)c2ccc(Br)cc2)CC1	14µM*	-0.6%	-26%	-1.6	7.3%[38.3 µM]	9%	0.6
O=C(NCCN1CCC(Cc2ccccc2)CC1)C1CCCN(S(=O)(=O)c2cnc[nH]2)C1 (centres undefined)	7%	-1.2%	-73%[inhibitor]	-3.5	1.3%	8%	5.2
C=CCNC(=O)/C(=C\c1ccc2c(c1)OCO2)NC(=O)c1ccc(Br)cc1	31%[activator]	?	-24%	-0.2	3.1%	-1%	4.0
CC(C)CCOc1ncnc2c1sc1nc3c(cc12)CSC(C)(C)C3	8%	-2.8%	2%[15.4 µM]	-1.1	0.7%	5%	7.7
COc1ccccc1NC(=O)N(Cc1ccco1)Cc1cc2c(C)ccc(C)c2[nH]c1=O	-8%	-0.2%	5%	-0.6	1.2%	4%	-2.5
CC1CCN(C(=O)Nc2ccc3nsnc3c2)CC1	3%	-6.6%	-2%	1.5	nt	-2%	-2.9
Cc1ccc(C)c(NC(=O)CSc2nc3ccccc3nc2N2CCOCC2)c1	-22%	5.2%&0.0%	-15%	-5.7	1.5%&1.7%	1%	6.0
Cc1ccc(C(=O)Nc2ccc(S(=O)(=O)N3CCN(C)CC3)cc2)cc1	9%	1.0%	-3%	-1.9	-0.7%	17%	3.9
CCOC(=O)c1cc2c(ccc3nc(C)c(C)c32)[nH]c1C	7%	4.2%	?	-6.3	3.0%	-5%	8.2
COCCN(CC(=O)NCc1ccc(F)cc1)C(=O)CCC(=O)Nc1nccs1	12%	-1.1%	-18%	-1.7	0.7%	2%	4.4
Cc1cc(C(C)(C)C)cc(C)c1COC(=O)C1CCC(=O)N1 (centres undefined)	-2%	-0.1%	1%	4.0	6.8%	2%	2.0
Cc1cc([N+](=O)[O-])c(C)cc1-c1ccc(/C=N/n2cnnc2)o1	12%	nt	-53%[inhibitor]	-2.3	0.5%	5%	0.1
CC1=CCC(C(=O)O)C(C(=O)Nc2nc3ccc(S(C)(=O)=O)cc3s2)C1 (centres undefined)	8%	-4.2%	-51%[inhibitor]	-1.4	0.6%	-3%	-1.2
CCc1nc2ccccc2c(C(=O)Nc2ccc(C)cc2)c1C	7%	-2.0%	-16%	1.0	0.2%	5%	1.9
O=C(O)C1CCN(C(=O)c2ccccc2N2C(=O)[C@@H]3Cc4c([nH]c5ccccc45)C(c4cccc(Cl)c4)N3C2=O)CC1 (some centres undefined)	14%	-4.6%	nt	4.7	0.7%	-1%	-3.8
CN(C(=O)COc1ccc(Cl)cc1Cl)c1nnc(C23CC4CC(CC(C4)C2)C3)s1	-3%	-0.5%	-2%	-5.3	1.7%	1%	0.0
O=C1C(Oc2ccc(Cl)cc2)C(c2ccc3c(c2)OCO3)N1CC1CCCO1 (centres undefined)	-1%	-0.3%	2%	2.5	0.4%	-30%	0.8
COc1cccc(OC)c1C(=O)N1CCNCC1	7%	?	8%[15.4 µM]	-2.6	-0.1%	5%	-2.8
Nc1nc(-c2ccco2)nc(N2CCCCC2)n1	3%	-2.1%	-23%	-2.7	-2.1%	2%	0.9
O=S(=O)(c1ccc(S(=O)(=O)N2CCN(C/C=C/c3ccccc3)CC2)cc1)N1CCCC1	-1%	1.9%	-14%	-1.3	3.3%	-8%	2.5
COc1ccccc1NC(=S)NCCc1ccc(F)cc1	9%	nt	-32%[inhibitor]	-0.8	1.5%	10%	3.1
CC(C)=CC(=O)N1CCC(N2CCC(C(=O)NCC3CCCO3)CC2)CC1 (centres undefined)	0%	nt	-15%[15.4 µM]	-5.6	0.5%	10%	nt
O=C(NNC(=O)c1ccc(S(=O)(=O)N2CCCCC2)cc1)c1ccccc1	19%	0.4%	-1%[15.4 µM]	-5.0	2.2%	12%	2.6
COCC(=O)N1CCC(Oc2cccc(C(=O)NCc3ccccn3)c2)CC1	14%	0.0%	?	-1.1	0.5%	-2%	-0.4
COc1ccc(S(=O)(=O)N2CCOC23CCN(S(=O)(=O)c2cc(C)ccc2OC)CC3)cc1	nt	0.9%	-29%	-1.2	14%	7%	nt
O=C(NNS(=O)(=O)c1ccccc1F)c1sccc1-n1cccc1	3%	nt	9%	-0.8	1.5%	5%	0.9
CCC(C)Sc1nc2c(c(=O)[nH]c(=O)n2C)n1CCc1ccccc1 (centres undefined)	2%	1.4%	-53%[inhibitor]	1.9	7.1%	-7%	3.6
Fc1ccccc1OCCn1c(=S)[nH]c2ccccc21	-13%	1.2%	-2%[15.4 µM]	-3.1	2.4%	-9%	2.9
Cc1noc(C)c1COc1ccccc1C(=O)N1CCN(S(=O)(=O)c2ccc(C(C)C)cc2)CC1	nt	0.8%	12%	0.8	0.3%	nt	nt
CCOC(=O)C1CCN(c2nc3c(C)cccn3c(=O)c2/C=C(\C#N)S(=O)(=O)c2ccccc2)CC1	0%	-2.4%	4%[15.4 µM]	-8.0	0.4%	-19%	?
CCN(CC)S(=O)(=O)c1cc(-c2nn(C)c(=O)c3ccccc23)ccc1C	-13%	-2.4%	-21%	-4.1	1.2%	9%	5.2
COc1ccccc1N(Cc1ccccc1)S(=O)(=O)c1cccc(C(=O)Nc2ccc(C)cn2)c1	nt	0.9%	-1%[15.4 µM]	0.7	1.6%	-2%	nt
CC(C)[C@@H]1NC(=O)c2cc([N+](=O)[O-])cc(I)c2NCCC[C@@H](C(N)=O)NC(=O)[C@H](CO)NC1=O	-16%	0.1%	nt	-2.5	0.3%	3%	3.1
O=C(O)CSCC(=O)N1CCCN(c2ccc(C(F)(F)F)cn2)CC1	13%	nt	-4%[15.4 µM]	0.7	-0.6%	8%	2.6
COc1ccc(-c2nnc3sc(C(C)N4C(=O)c5ccccc5C4=O)nn23)cc1 (centres undefined)	-9%	-2.6%	-23%	-5.1	-0.3%	?	1.2
COCCN(CC(=O)Nc1ccccc1C)S(=O)(=O)c1ccc(S(=O)(=O)N2CCCC2)cc1	19%	-0.5%	-1%	-2.4	-0.7%	-8%	0.9
Nc1nc2ncc(CNc3ccc(C(=O)N[C@@H](CCC(=O)O)C(=O)O)cc3)nc2c(=O)[nH]1	0%&1%&21%	-19%	nt	-4.3	-0.5%	11%	?
O=C(NCc1ccccc1)c1cnc2n(c1=O)CCS2	-1%	-17%	?	-3.2	-0.8%	9%	0.4
CCC1(CC)Cc2ccccc2C(N)=C1C#N	7%	0.2%	-8%	-3.5	1.3%	-4%	-2.4
CCn1nc(C)c(NC(=O)c2ccc(Cl)cc2)c1C	?	-0.1%	13%	-3.7	-0.5%	13%	-0.5
Cc1oc(-c2ccccc2Cl)nc1CS(=O)CC(=O)NCc1cccs1 (centres undefined)	9%	0.2%	24%	-3.4	1.4%	0%	3.1
CC1CCCCC1NS(=O)(=O)c1ccc(S(=O)(=O)NCc2ccncc2)cc1 (centres undefined)	4%	-0.4%	-11%	3.8	5.2%[38.3 µM]	-23%	2.1
CCCCn1c(SCC(=O)N2CCCC2)nc2cc(S(N)(=O)=O)ccc21	20%	1.0%	3%	-2.0	1.8%	-2%	4.2
O=C(O)c1ccc2c(=O)n3c(nc2c1)/C(=C/c1ccccc1C(F)(F)F)CCCC3	12%	-0.8%	24%[15.4 µM]	-4.6	-1.7%	?	2.1
COC(=O)CN1C(=S)N(c2ccc(Cl)cc2)C(=O)C1CC(=O)Nc1ccc(F)cc1 (centres undefined)	-7%	0.8%	14%	-4.5	0.2%	-18%	-0.2
O=C(CSc1nnc(-c2c[nH]c3ccccc23)o1)c1ccc(-c2ccccc2)cc1	-2%	-1.9%	-8%[15.4 µM]	-6.0	-1.6%	-6%	nt
CCOC(=O)C1CCCN(S(=O)(=O)c2cc(OCC(=O)NC3CCCCC3)c(C)cc2Cl)C1 (centres undefined)	-9%	-1.6%	7%	2.2	-2.9%	?	-0.3
Cc1ccc(NC(=S)N2CCCC2)cc1C	8%	-1.4%	-7%	-3.2	-0.5%	5%	nt

Assay outcomes deposited in PubChem by National Center for Advancing Translational Sciences (NCATS).
